AF4-AF9 inh = inhibitors of AF4 peptide binding to AF9, primary screen, biochemical, AlphaScreen, biotin-AF4 peptide, FLAG-AF9, single point. inhibition, % at 10 µM. Protein AF-9 (Homo sapiens), P42568. hit rate 0.47% among 350,000;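 active means every replicate reaching a set inhibition limit, whatever the replicate mean, cut at about 25% in these data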;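 further: 0% = plate neutral control median and 100% = total signal loss; the record names both 10 and 1 µM as test concentration; the first replicate is given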
Target sequence (P42568 whole entry, looked up): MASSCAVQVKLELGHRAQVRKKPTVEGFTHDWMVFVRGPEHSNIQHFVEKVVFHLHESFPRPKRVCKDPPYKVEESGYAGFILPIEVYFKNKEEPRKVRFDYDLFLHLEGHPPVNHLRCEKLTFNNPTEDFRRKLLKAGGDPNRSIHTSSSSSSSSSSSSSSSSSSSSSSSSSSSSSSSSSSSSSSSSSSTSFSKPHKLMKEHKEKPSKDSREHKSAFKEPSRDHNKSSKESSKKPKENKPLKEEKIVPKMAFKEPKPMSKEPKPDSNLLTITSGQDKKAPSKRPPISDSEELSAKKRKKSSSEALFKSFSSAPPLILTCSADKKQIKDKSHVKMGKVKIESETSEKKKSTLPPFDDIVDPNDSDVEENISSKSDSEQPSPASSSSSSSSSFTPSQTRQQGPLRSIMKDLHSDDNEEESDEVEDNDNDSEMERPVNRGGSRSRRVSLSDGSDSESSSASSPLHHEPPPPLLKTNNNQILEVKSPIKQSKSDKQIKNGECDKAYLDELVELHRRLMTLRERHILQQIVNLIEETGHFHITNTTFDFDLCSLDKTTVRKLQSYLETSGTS
FGF22 binding = binders of human FGF22 protein, primary screen, FGF22 synaptogenesis inhibitor project, biophysical, thermal shift, single point. Fibroblast growth factor 22 (Homo sapiens), Q9HCT0. recombinant FGF22 thermal shift, SYPRO orange fluorescence; percent of sucrose octasulfate shift, DMSO zero. calls only at 9.99 µM. hit rate 1.5% among 340,000. AID 651658, 2012;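 active means melting point raised past a set limit in the mean and every replicate; three in four hits are not shown here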
Target sequence (Q9HCT0 whole entry, looked up): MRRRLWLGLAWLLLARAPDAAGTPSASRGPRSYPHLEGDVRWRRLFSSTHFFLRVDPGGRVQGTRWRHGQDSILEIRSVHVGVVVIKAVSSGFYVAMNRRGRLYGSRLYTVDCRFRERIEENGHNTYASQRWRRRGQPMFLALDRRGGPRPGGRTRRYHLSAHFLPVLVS
* = called active by the depositor; i = inactive; + = active, no number.

SMILES | AF4-AF9 inh | FGF22 binding
C[C@H]1CN([C@@H](C)CO)C(=O)c2cccc(N(C)C)c2O[C@@H]1CN(C)Cc1ccc(C(F)(F)F)cc1 | 0.1 | i
Cc1noc(C)c1NC(=O)NCC[C@@H]1CC[C@H](NC(=O)Cc2cccnc2)[C@@H](CO)O1 | 2.7 | i
C[C@@H]1CCCCO[C@H](CN(C)C)[C@@H](C)CN([C@H](C)CO)C(=O)c2cc(NC(=O)CCCN(C)C)ccc2O1 | 1.4 | i
CCOC(=O)C1=C(C(=O)OCC)C2N(Cc3ccc(C#N)cc3)c3ccccc3[C@@]23C[C@@H](C(=O)OC)N(S(=O)(=O)c2ccc(C#N)cc2)C3=N1 (stereo not given in full) | 0.2 | i
C[C@@H]1CN([C@@H](C)CO)C(=O)c2cc(-c3ccncc3)cnc2O[C@@H]1CN(C)C(=O)NC1CCCC1 | -4.4 | i
O=C(Nc1ccc(Cl)cc1)N[C@H]1CC[C@H](CCn2cc(Cc3ccccc3)nn2)O[C@H]1CO | 1.2 | i
C[C@@H]1CCCCO[C@H](CN(C)Cc2ccc(Cl)c(Cl)c2)[C@@H](C)CN([C@@H](C)CO)C(=O)c2cc(NS(=O)(=O)c3ccc(Cl)cc3)ccc2O1 | -2.7 | i
Cc1noc(C)c1S(=O)(=O)Nc1ccc2c(c1)C(=O)N([C@H](C)CO)C[C@H](C)[C@H](CN(C)Cc1ccc(Cl)c(Cl)c1)O2 | 2.0 | i
CCCNC(=O)[C@@H]1[C@@H](CO)[C@@H]2Cn3c(ccc(-c4ccccc4)c3=O)[C@H]1N2C(=O)CC1CC1 | -7.0 | i
COCC#Cc1ccc2c(c1)O[C@@H](CN(C)C(=O)CN(C)C)[C@H](C)CN([C@H](C)CO)S2(=O)=O | -1.0 | i
COc1ccccc1S(=O)(=O)N(C)C[C@H]1Oc2ncc(-c3ccc(C)cc3)cc2C(=O)N([C@@H](C)CO)C[C@@H]1C | 4.4 | i
COc1ccc(NC(=O)N[C@H]2CC[C@@H](CCNC(=O)c3cc(Cl)cc(Cl)c3)O[C@@H]2CO)cc1 | 0.3 | i
C[C@H](CO)N1C[C@H](C)[C@H](CN(C)C(=O)Nc2cc(F)ccc2F)Oc2cc(/C=C/c3ccccc3)ccc2S1(=O)=O | 1.1 | +
O=C(c1cccnc1)N1CC[C@@H]2[C@H]1c1cc(C#Cc3cccnc3)ccc1N[C@@H]2CO | -1.7 | i
COC(=O)C[C@@H]1CC[C@H]2[C@@H](COc3ccc(NC(=O)c4cc(C)on4)cc3C(=O)N2C)O1 | -2.5 | i
CCS(=O)(=O)N1CCCCN2[C@H](CO)[C@@H](c3ccc(-c4ccc(C(=O)N(C)C)cc4)cc3)[C@H]2C1 | 3.2 | i
Cc1ccc(S(=O)(=O)N(C)C[C@H]2Oc3c(NC(=O)Nc4ccc5c(c4)OCO5)cccc3C(=O)N([C@@H](C)CO)C[C@@H]2C)cc1 | -3.9 | i
CO[C@H]1CN(C)C(=O)c2cc(NC(=O)c3cnccn3)ccc2OC[C@H](C)N(C(C)=O)C[C@@H]1C | -2.6 | i
O=C(C[C@H]1CC[C@H]2[C@@H](COC[C@H](O)CN2C(=O)Nc2ccc(F)cc2)O1)NC1Cc2ccccc2C1 | -1.7 | i
CNC[C@@H]1Oc2ccc(NC(=O)c3ccncc3)cc2C(=O)N([C@@H](C)CO)C[C@H]1C | -4.5 | i
C/C=C/c1cnc2c(c1)C(=O)N([C@@H](C)CO)C[C@H](C)[C@H](CN(C)C(=O)Nc1ccccc1F)O2 | -0.3 | i
COc1ccccc1-c1ccc2n(c1=O)C[C@H]1[C@H](CO)[C@@H](C(=O)NCC3CC3)N(S(C)(=O)=O)[C@@H]21 | 12.0 | i
O=C(Nc1ccc(F)cc1)N[C@H]1CC[C@H](CC(=O)N2CCOCC2)O[C@@H]1CO | 0.0 | i
C[C@H]1CN([C@@H](C)CO)C(=O)c2cccc(NS(=O)(=O)c3ccccc3)c2O[C@@H]1CN(C)C | -1.4 | i
COc1ccccc1CN1CC[C@@H]2[C@H]1c1cc(C#Cc3ccccc3)ccc1N[C@@H]2CO | 13.3 | i
C[C@H](CO)N1C[C@H](C)[C@@H](CN(C)Cc2ccc(C(F)(F)F)cc2)Oc2ccc(NC(=O)C3CC3)cc2CC1=O | 4.9 | i
OC[C@@H]1[C@H](c2ccc(C#Cc3ccccc3F)cc2)[C@H]2CN(Cc3cncnc3)CCCCN12 | 3.7 | i
O=S(=O)(NCC[C@@H]1CC[C@@H](NS(=O)(=O)c2cccc(F)c2)[C@H](CO)O1)c1cccc(F)c1 | -1.1 | i
CO[C@@H](CN(C)CC1CCOCC1)[C@H](C)CN(C(=O)Nc1ccc(F)cc1)[C@H](C)CO | 5.6 | i
OC[C@@H]1[C@@H](c2ccc(-c3ccccc3F)cc2)[C@@H]2CN(Cc3cccnc3)CCCCN12 | 1.2 | i
CN(C)C(=O)C[C@@H]1CC[C@@H]2[C@H](COc3ccc(NC(=O)c4ccc(F)cc4)cc3C(=O)N2C)O1 | -2.1 | i
COCC(=O)Nc1ccc2c(c1)OC[C@@H](C)N(C(=O)Cc1ccccn1)C[C@H](C)[C@H](OC)CN(C)C2=O | 0.1 | i
C[C@H](CO)N1C[C@H](C)[C@H](CN(C)Cc2cccc(O)c2)OCc2cnnn2CCCC1=O | 0.0 | i
C[C@@H]1CCCCO[C@H](CN(C)C(=O)C2CCCCC2)[C@@H](C)CN([C@H](C)CO)C(=O)c2cc(NC(=O)c3ccccc3)ccc2O1 | 0.5 | i
COc1ccccc1-c1cnc2c(c1)C(=O)N([C@H](C)CO)C[C@H](C)[C@@H](CN(C)Cc1ccncc1)O2 | 0.0 | i
CN(C)C(=O)C[C@@H]1CC[C@@H](NC(=O)NC2CCCCC2)[C@@H](CO)O1 | -0.9 | i
CC(=O)N1[C@@H](CO)[C@@H](c2ccccc2)C12CN(C(=O)Nc1ccccc1F)C2 | -1.9 | i
COc1cccc(-c2cn(CC[C@@H]3CC[C@@H](NS(=O)(=O)Cc4ccccc4)[C@H](CO)O3)nn2)c1 | 1.9 | i
C[C@H]1CN([C@@H](C)CO)C(=O)Cc2cc(NC(=O)Nc3cccc4ccccc34)ccc2O[C@H]1CN(C)C(=O)NC1CCCCC1 | 0.1 | i
CC(=O)N1C[C@H]2[C@@H](c3ccccc31)[C@@H](CO)N2Cc1ccc(Cl)cc1 | -0.9 | i
Cc1noc(C)c1S(=O)(=O)N(C)C[C@@H]1OCCCC[C@@H](C)Oc2ccc(NC(=O)Nc3ccc(C(F)(F)F)cc3)cc2C(=O)N([C@H](C)CO)C[C@H]1C | -2.7 | i
COC(=O)[C@@H]1[C@@H](CO)[C@@H]2Cn3c(ccc(-c4ccccc4OC)c3=O)[C@@H]2N1CC1CCCC1 | -0.3 | i
CO[C@H]1CN(C)C(=O)c2cc(NS(C)(=O)=O)ccc2OC[C@@H](C)N(C(=O)C2CCCCC2)C[C@H]1C | -0.7 | i
N[C@@H]1CC[C@@H](CCn2cc(C3CCCCC3)nn2)O[C@H]1CO | 0.9 | i
C[C@H]1CN([C@@H](C)CO)S(=O)(=O)c2ccc(-c3cncnc3)cc2O[C@@H]1CN(C)C(=O)C1CCCCC1 | 1.5 | i

Shown with tabs: nine of the compounds above
molecule	AF4-AF9 inh	FGF22 binding
COc1ccccc1-c1cnc2c(c1)C(=O)N([C@H](C)CO)C[C@H](C)[C@@H](CN(C)Cc1ccncc1)O2	0.0	i
CN(C)C(=O)C[C@@H]1CC[C@@H](NC(=O)NC2CCCCC2)[C@@H](CO)O1	-0.9	i
CC(=O)N1[C@@H](CO)[C@@H](c2ccccc2)C12CN(C(=O)Nc1ccccc1F)C2	-1.9	i
COc1cccc(-c2cn(CC[C@@H]3CC[C@@H](NS(=O)(=O)Cc4ccccc4)[C@H](CO)O3)nn2)c1	1.9	i
C[C@H]1CN([C@@H](C)CO)C(=O)Cc2cc(NC(=O)Nc3cccc4ccccc34)ccc2O[C@H]1CN(C)C(=O)NC1CCCCC1	0.1	i
CC(=O)N1C[C@H]2[C@@H](c3ccccc31)[C@@H](CO)N2Cc1ccc(Cl)cc1	-0.9	i
Cc1noc(C)c1S(=O)(=O)N(C)C[C@@H]1OCCCC[C@@H](C)Oc2ccc(NC(=O)Nc3ccc(C(F)(F)F)cc3)cc2C(=O)N([C@H](C)CO)C[C@H]1C	-2.7	i
COC(=O)[C@@H]1[C@@H](CO)[C@@H]2Cn3c(ccc(-c4ccccc4OC)c3=O)[C@@H]2N1CC1CCCC1	-0.3	i
CO[C@H]1CN(C)C(=O)c2cc(NS(C)(=O)=O)ccc2OC[C@@H](C)N(C(=O)C2CCCCC2)C[C@H]1C	-0.7	i

Going on with the list:
SMILES | AF4-AF9 inh | FGF22 binding
CN1C(=O)c2cc(NC(=O)Nc3cccc(Cl)c3)ccc2OC[C@@H]2O[C@H](CC(=O)O)CC[C@H]21 | 0.4 | i
Cc1noc(C)c1NC(=O)N(C)C[C@@H]1OCCCC[C@@H](C)Oc2ccc(NC(=O)C3CCCCC3)cc2C(=O)N([C@@H](C)CO)C[C@H]1C | -0.1 | i
Cc1ccccc1-c1ccc2c(c1)O[C@H](CN(C)C(=O)C1CC1)[C@@H](C)CN([C@H](C)CO)S2(=O)=O | 1.7 | i
C[C@H](CO)N1C[C@H](C)[C@@H](CN(C)Cc2ccccn2)Oc2cc(Br)ccc2S1(=O)=O | -0.1 | i
C[C@@H]1CN([C@@H](C)CO)C(=O)c2cc(NS(=O)(=O)c3ccc(F)cc3)ccc2O[C@H]1CN(C)Cc1ccc(Oc2ccccc2)cc1 | 2.5 | i
C[C@@H]1CN([C@@H](C)CO)C(=O)c2cccc(NS(=O)(=O)c3ccc(F)cc3)c2O[C@H]1CN(C)C(=O)Nc1ccc(C(F)(F)F)cc1 | -2.2 | i
C[C@H]1CN([C@@H](C)CO)C(=O)c2cccc(NC(=O)c3ccc(-c4nccs4)cc3)c2O[C@@H]1CN(C)C(=O)Nc1ccc2c(c1)OCO2 | -0.6 | i
C[C@H]1CN([C@@H](C)CO)C(=O)c2cccc(N(C)C)c2O[C@@H]1CN(C)C(=O)NC1CCCCC1 | -1.9 | i
CC=Cc1ccc2n(c1=O)C[C@@H]1[C@@H](CO)[C@H](C(=O)Nc3ccc(-c4ccccc4)cc3)N(CC)[C@H]21 (mixture of isomers) | 0.3 | i
Cc1ccc(S(=O)(=O)Nc2ccc3c(c2)C(=O)N([C@H](C)CO)C[C@@H](C)[C@@H](CN(C)C(=O)Nc2ccc4c(c2)OCO4)OCCCC[C@H](C)O3)cc1 | 0.3 | i
C[C@@H]1CCCCO[C@@H](CN(C)S(=O)(=O)c2ccc(Cl)cc2)[C@@H](C)CN([C@@H](C)CO)C(=O)c2cc(NC(=O)Nc3ccccc3)ccc2O1 | 2.6 | i
CC(C)NC(=O)N(C)C[C@H]1Oc2ccc(NS(C)(=O)=O)cc2CC(=O)N([C@@H](C)CO)C[C@H]1C | -3.5 | i
C[C@@H]1CN([C@@H](C)CO)C(=O)c2cc(NC(=O)Nc3ccc4c(c3)OCO4)ccc2O[C@@H]1CN(C)Cc1ccc(-c2ccccc2)cc1 | 5.0 | i
C[C@H](CO)N1C[C@H](C)[C@H](CN(C)C(=O)Nc2ccc(-c3cccs3)cc2)OCc2cn(nn2)CCCC1=O | -0.9 | i
O=C(N[C@@H]1CC[C@@H](CCNS(=O)(=O)c2ccccc2Cl)O[C@@H]1CO)c1ccccc1 | -0.6 | i
CO[C@@H](CN(C)S(=O)(=O)c1ccc(C)cc1)[C@H](C)CN(Cc1ccccc1Cl)[C@@H](C)CO | -0.3 | i
C/C=C/c1cnc2c(c1)C(=O)N([C@H](C)CO)C[C@@H](C)[C@H](CN(C)C(=O)CN1CCOCC1)O2 | -1.8 | i
COCC#Cc1cnc2c(c1)C(=O)N([C@H](C)CO)C[C@@H](C)[C@H](CN(C)C(=O)Nc1ccc(OC)cc1)O2 | -0.5 | i
COc1ccc(-c2ccc([C@H]3[C@@H](CO)N(C(=O)C4CC4)[C@H]3C#N)cc2)cc1 | -8.6 | i
CO[C@H]1CN(C)C(=O)c2cc(NC(=O)c3ccno3)ccc2OC[C@H](C)NC[C@@H]1C | -5.6 | i
COc1ccc(NC(=O)Nc2ccc3c(c2)C(=O)N([C@@H](C)CO)C[C@@H](C)[C@H](CN(C)S(=O)(=O)c2ccc(C)cc2)OCCCC[C@@H](C)O3)cc1 | -8.3 | i
O=C(CN1CCOCC1)NCC[C@H]1CC[C@H](NC(=O)Nc2ccc(F)cc2)[C@H](CO)O1 | 20.7 | i
O=C(N[C@@H]1CC[C@H](CCn2cc(-c3ccccn3)nn2)O[C@H]1CO)c1ccncc1 | -0.2 | i
COCC(=O)N(C)C[C@H]1Oc2cc(C#CCC3CCCC3)ccc2S(=O)(=O)N([C@@H](C)CO)C[C@H]1C | -3.5 | i
CN1C(=O)c2cc(NC(=O)c3ccc(F)c(F)c3)ccc2OC[C@@H]2O[C@@H](CC(=O)N[C@@H]3CCN(Cc4ccccc4)C3)CC[C@H]21 | 10.8 | i
O=C(C[C@@H]1CC[C@H](NC(=O)Nc2cc(F)ccc2F)[C@H](CO)O1)NCCCN1CCOCC1 | -1.4 | i
CNC(=O)C[C@H]1CC[C@@H]2[C@H](COC[C@@H](O)CN2S(=O)(=O)c2ccccc2Cl)O1 | 1.2 | i
Cc1ccc(CN(C)C[C@H]2OCc3cn(nn3)CCCC(=O)N([C@H](C)CO)C[C@H]2C)cc1 | -0.4 | i
C[C@@H]1CCCCO[C@H](CN(C)CC2CCCCC2)[C@@H](C)CN([C@H](C)CO)C(=O)c2cc(NC(=O)Nc3ccc4c(c3)OCO4)ccc2O1 | -15.5 | i
CCC(=O)N(C)C[C@@H]1Oc2ncc(-c3ccc(C)cc3)cc2C(=O)N([C@H](C)CO)C[C@H]1C | -11.6 | i

An excerpt; the hit share may differ from the screen's.
